Compound activity: PubChem BioAssay, several laboratories
Autofluor counter: counter-screen for toxin protease inhibitors: compound fluorescence. compound autofluorescence counterscreen, microsphere flow cytometry; active compounds read high. fluorescence intensity (no concentration beside the values). hit rate 3.1% among 360,000. AID 624483;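 active means at least 3 SD above the mean of all compounds, about 16000 in these data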;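 further: 100 nL of 1 mM stock went into each well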
PrP 5UTR inh: suppresses PrP 5' UTR mRNA reporter expression | cell-based PrP 5' UTR mRNA reporter, plate reader | inhibition, % (concentration not given with the values) | hit rate 0.35% among 340,000 | AID 488862;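 active means every replicate at 50% or more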;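 further: 0 = median of the neutral control wells; tested in H4 reporter cells; numbers are from one replicate; inactives centre near -14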
BJeLR viability: kills HRASV12-expressing BJeLR cells; AID 1554; hit rate 0.17% among 300,000; inhibition, % (no concentration beside the values); BJeLR (HRASV12) viability, CellTiter-Glo ATP luminescence, 48 h; reference of the scale not given here;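 active means replicate mean above 50%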;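 further: 50 nL library stock added to about 25 µL; numbers are from one replicate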
RN4220 kill: S. aureus RN4220 growth inhibition. hit rate 0.33% among 330,000. inhibition, % (test concentration not listed). OD600, 16 h;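 active means z-score of -3 or lower and OD600 up to 0.18 on both plates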;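 further: plate controls were untreated cells for no effect and reference antibiotic for full effect; stock transfer was 100 nL into about 80 µL; one replicate is shown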
Mtb hypoxia rep: Mtb hypoxia fluorescent reporter inhibition; M. tuberculosis hypoxia-regulated fluorescent reporter, fluorescence; hit rate 0.1% among 300,000; fluorescence inhibition, % (no concentration beside the values);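 active means 35 to 45% if threefold the growth effect, above 45% if 1.5-fold the growth effect; inactive means the rest, general growth blockers included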;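 further: wells of about 50 µL received 100 nL stock; 0% = vehicle wells and 100% = reference inhibitor wells; whole bacteria with a GFP reporter of the hypoxia response; strong numbers were not always called active; many hits fall short of the cut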
Sa ugtP lethal: growth inhibition of S. aureus ugtP deletion strain; S. aureus RN4220 ugtP deletion, OD600 growth, 16 h; some inactives read as strong as hits; growth inhibition, % (test concentration not listed); hit rate 0.54% among 330,000; AID 1259309;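 active means z-score under -3 and OD600 up to 0.15 on both plates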;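 further: plate controls were untreated wells for no effect and antibiotic for full effect; wells of about 80 µL received 100 nL stock; the first replicate is given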
Mtb hypoxia rep growth: further read-out of Mtb hypoxia rep, marked with its call; growth inhibition, %; measured here: M. tuberculosis growth (absorbance);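 0% = vehicle and 100% = reference antibiotic; read after six days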
* hit, by the source's call; nt = not tested or not shown; & = joins results of further samples.

SMILES	Autofluor counter	PrP 5UTR inh	BJeLR viability	RN4220 kill	Mtb hypoxia rep	Mtb hypoxia rep growth	Sa ugtP lethal
CCOc1ccc2ccccc2c1C=NNC(=O)CNC(=O)Cc1ccccc1	nt	nt	nt	2.3	1	0	6
COC(=O)c1ccccc1NC(=S)N1CCN(c2ccccc2)CC1	3616	-19	5	1.4	2	3	12
CN(Cc1ccc(Cl)s1)C(=O)CNC(=O)CNC(=O)c1ccc(Cl)cc1Cl	4023	-12	nt	-3.7	-4	11	-7
O=C(COc1cccc2ccccc12)N/N=C/C=C/c1ccccc1	2656	-17	4	nt	nt	nt	nt
CCOC(=O)NCC(C)(C)CNC(=O)OCC	9752	-19	-2	1.8	5	6	-5
Cc1ccc(OCCn2c(=O)sc3ccccc32)cc1	4270	-109	-9	1.8	nt	nt	14
CNCC1Oc2ccc(NC(=O)C3CCCCC3)cc2CC(=O)N(C(C)CO)CC1C (centres undefined)	nt	nt	nt	7.3	7	2	0
COc1ccc(Cn2nnnc2CN2CCC(c3nc4ccccc4s3)CC2)cc1	7844	-11	-1	9.1	4	1	9
CCCn1c(SCC(=O)Nc2nnc(CC)s2)nnc1-c1ccco1	4191	-12	-13	4.2	nt	nt	10
COc1ccc(CCN(Cc2cccs2)S(=O)(=O)c2ccc(C(=O)O)cc2)cc1OC	3945	-11	nt	2.3	-6	10	-14
CCCCc1nnc(NC(=O)c2cccc(S(=O)(=O)N3CCN(C)CC3)c2)s1	6681	1	2	2.4	0	13	1
O=C(O)c1cc(-c2cccc([N+](=O)[O-])c2)n[nH]1	3273	-15	-13	2.4	13	10	1
CCn1cc(C(=O)NCc2ccco2)c(=O)c2ccc(C)nc21	3391	0	-12	0.4	4	4	19
COc1ccccc1C(=O)Nc1cc2c(cc1C(=O)O)OCCCO2	3656	-7	5	-1.6	-8	2	-2
Cc1cc(C)c(NC(=O)COC(=O)/C=C/c2cccc(C(F)(F)F)c2)c(C)c1	2360	2	-5	4.4	3	9	2
Cc1ccc(C(=O)Nc2cccc3ccccc23)cc1	3298	-76	3	9.2	25	10	1
CC(N)CN1CCc2ccc(Br)cc21 (centres undefined)	nt	nt	nt	3.0	8	14	10
Cc1onc(-c2c(Cl)cccc2Cl)c1C(O)c1ccccc1 (centres undefined)	3829	nt	3	12	19	5	-1
Cc1nn(-c2ccccc2)c(C)c1C(=O)OCC(=O)N(C)c1c(N)n(Cc2ccccc2)c(=O)[nH]c1=O	nt	-1	-5	-5.1	2	-1	0
O=C(NNC(=O)c1cc(-c2ccccc2)nc2ccccc12)Nc1cccc(Cl)c1	2259	-25	3	4.2	nt	nt	-3
O=C(c1cccc([N+](=O)[O-])c1)c1ccc2c(c1)C(=O)N(c1c[nH]c(=O)[nH]c1=O)C2=O	nt	nt	10	-1.5	0	4	6
CN(CCNC(=O)c1cc2c(=O)n(C)c3ccccc3c2n1C)Cc1ccccc1	5905	9	5	0.1	nt	nt	4
Brc1ccc(Cn2c(-c3ccc(Br)o3)nc3ccccc32)o1	2197	-30	-7	-1.4	18	6	-7
CCCCNc1nc2c(-c3ccccc3)nnn2c2ccccc12	3662	-3	-4	2.1	-4	3	2
CS(=O)(=O)N(Cc1ccc(Cl)cc1)c1ccc(C(=O)NCCSc2ccccn2)cc1	7197	-12	-1	-0.6	4	-4	3
O=C(CNC(=O)Cc1ccc(Cl)cc1)NCC(=O)N1CCCCC1	5151	-11	-12	4.3	7	6	-1
CCOC1OC(C(=O)N2CCCCCCC2)=CC(c2csc3ccccc23)C1CCCO (centres undefined)	nt	nt	nt	3.2&8.9	7&10	14&8	-7&-32
O=C(NC1CC(=O)N(c2ccccc2)C1)C(=O)c1c[nH]c2ccccc12 (centres undefined)	5006	-6	-2	1.7	1	-5	-2
COc1ccc(C2CC(C(F)(F)F)n3nc(C(=O)O)cc3N2)cc1 (centres undefined)	4014	-22	-2	4.3	8	10	4
C=CCOc1ccc(/C=N/N2C(=O)C(CC(=O)Nc3ccc(F)cc3F)SC2=NC)cc1 (centres undefined)	2468	-41	-9	nt	nt	nt	nt
COc1ccc(Cl)cc1NC(=O)c1sc2nc(C)nc(N3CCOCC3)c2c1C	5519	1	13	8.4	-11	-8	-4
CCOc1ccc(C(=O)NCC(=O)OCc2ccc(F)cc2Cl)cc1	1846	-7	14	-1.6	0	0	18
O=C(NC1CCCCC1)N(C1=NCCCCC1)c1ccc(Br)cc1	2538	-21	-5	-2.4	16	15	-4
CCC(CO)N=C1CC(C)(C)CC(=O)/C1=C(\O)CCCN1C(=O)c2ccccc2C1=O (centres undefined)	nt	nt	nt	8.7	16	9	3
CCOC(=O)c1ccc(CC(=O)c2ccc(O)cc2O)o1	2902	-33	4	6.0	10	-1	-3
CC(CCc1ccco1)N(C)S(=O)(=O)c1csc(C(N)=O)c1 (centres undefined)	5842	-11	-3	0.3	15	18	0

Of the compounds above, five contain a furan ring, fused or not:
SMILES	Autofluor counter	PrP 5UTR inh	BJeLR viability	RN4220 kill	Mtb hypoxia rep	Mtb hypoxia rep growth	Sa ugtP lethal
CCCn1c(SCC(=O)Nc2nnc(CC)s2)nnc1-c1ccco1	4191	-12	-13	4.2	nt	nt	10
CCn1cc(C(=O)NCc2ccco2)c(=O)c2ccc(C)nc21	3391	0	-12	0.4	4	4	19
Brc1ccc(Cn2c(-c3ccc(Br)o3)nc3ccccc32)o1	2197	-30	-7	-1.4	18	6	-7
CCOC(=O)c1ccc(CC(=O)c2ccc(O)cc2O)o1	2902	-33	4	6.0	10	-1	-3
CC(CCc1ccco1)N(C)S(=O)(=O)c1csc(C(N)=O)c1 (centres undefined)	5842	-11	-3	0.3	15	18	0

Next results follow.
SMILES	Autofluor counter	PrP 5UTR inh	BJeLR viability	RN4220 kill	Mtb hypoxia rep	Mtb hypoxia rep growth	Sa ugtP lethal
CC1CCC(NC(=O)c2nn(C)c3c2CS(=O)(=O)c2ccccc2-3)CC1 (centres undefined)	5633	-12	-1	4.5	1	-3	6
COc1ccc(NC(=S)NCCCN2CCCC2)cc1Cl	5806	-15	2	3.3	-1	6	4
CC(O)C(O)C(O)C(O)/C=N/NC(=O)c1ccccc1 (centres undefined)	2799	-20	-5	nt	nt	nt	nt
CCN(CC)C(=O)C(C)N(C#N)c1nc(Cl)nc(N(C)C)n1 (centres undefined)	4833	-30	2	0.7	12	-1	0
Cc1cccc(N2CCN(C(=O)N3CCCCC3)CC2)c1C	4312	-19	-14	3.4	-3	2	-8
CCNC(=S)/N=C(/Nc1ccc(OC)cc1)Nc1nc(C)cc(C)n1	6462	nt	-11	3.7	10	-4	-1
CCOC(=O)c1c(C)[nH]c(C(=O)OCc2c(C)noc2C)c1C	4404	-20	3	2.0	nt	nt	-2
CC(C)(C)NC(=O)CSc1nc(-c2ccccc2)cc(=O)[nH]1	2586	-1	-4	14	10	6	6
CCN(C(=O)N(CC)c1ccccc1)c1ccccc1	5965	-12	nt	10	16	4	1
NC(CO)C(O)c1ccc([N+](=O)[O-])cc1 (centres undefined)	4176	0	5	0.3	nt	nt	-22
Cc1ccc(OCCOC(=O)CN2C(=O)NC3(CCCC3)C2=O)cc1	4985	2	2	2.4	0	0	0
NC(=O)CSc1nc2cccnc2n1-c1ccc(F)cc1	4092	-9	-2	3.7	6	2	-2
CCCCc1cc2c(s1)CCCC/C2=N/O	2681	-28	5	nt	nt	nt	nt
COc1cccc(CNC(=O)C(C(=O)NCc2cccc(OC)c2)c2ncc(C(F)(F)F)cc2Cl)c1	3125	-4	7	7.9	8	6	10
COC(=O)c1c(NC(=O)CN2C(=O)NC3(CCCCC3C)C2=O)sc2c1CCC2 (centres undefined)	3931	-23	nt	4.0	29*	53*	-13
CCc1nc(NCCO)c(C#N)c2c1CCCC2	3861	-2	10	2.7	1	-1	6
CCOC(=O)CNc1nc(-c2ccncc2)nc2ccccc12	3652	-7	nt	2.6	nt	nt	-4
CCn1cc(C(=O)O)c(=O)c2cc(F)c(N3CCN(C(=S)NC(=O)c4c(OC)cccc4OC)CC3)cc21	6696	-28	0	98*	nt	nt	100*
COc1cccc(-n2c(C)c(C(C)=O)c(C(C)=O)c2C)c1	4544	-16	3	1.7	nt	nt	6
FC(F)(F)c1cccc(Cc2noc(CN3CCC(c4ccncc4)CC3)n2)c1	4163	-11	22	10	12	6	7
c1cncc(Oc2cccc(Oc3cccnc3)c2)c1	5280	-47	nt	-3.7	nt	nt	2
O=C(CC(=O)N/N=C/c1ccccc1O)NCc1cccnc1	2542	-28	9	nt	nt	nt	nt
CNC(=S)NCCCc1ccccc1	4100	-12	10	1.5	18	16	-1
O=C(/C=C/N1CCOCC1)c1cc2ccccc2o1	3225	-59	2	2.5	nt	nt	8
Cc1ccc(C(=O)N/C(=C/c2ccc(-c3cccc([N+](=O)[O-])c3)o2)C(=O)NC(C)(C)C)cc1	2453	-2	0	nt	nt	nt	nt
O=C(Nc1cccc(C(F)(F)F)c1)Oc1ccccc1N1CCOCC1	4308	-13	3	-0.7	8	-2	-6
O=C(/C=C/c1ccc2c(c1)OCO2)Nc1c(C(=O)O)[nH]c2ccccc12	9053	-24	-12	nt	nt	nt	nt
Cc1c(C(=O)c2ccccc2C(=O)O)sc2ccccc12	4012	-13	6	8.3	1	0	-3
CCN(c1ccccc1)S(=O)(=O)c1cc(CN2C(=O)c3cccnc3C2=O)ccc1OC	5539	-11	5	0.8	9	2	7
CCC(=O)Nc1ccc2c(c1)nc(CCN1CCC(C)CC1)n2C	3736	2	-7	1.1	-13	2	3
CSc1ccc(OCC(=O)Nc2ccc(N3CCOCC3)c(Cl)c2)cc1	5468	-4	4	-2.3	6	-3	7
CC1C(=O)Nc2ccccc2N1C(=O)C1CC1 (centres undefined)	2899	-9	-3	-13	5	7	-3
COC(=O)c1cc(Cl)c(NC(=O)/C=C/c2ccc(OC)cc2)cc1OC	2431	-8	16	1.6	10	3	2
CC(C)(C)c1ccc(/C=C(\c2nc3ccccc3[nH]2)S(=O)(=O)c2ccccc2)cc1	4211	-18	-1	-1.8	-6	1	-6
Cc1cccc(-c2noc(CCCC(=O)Nc3ccc(C(N)=O)cc3)n2)c1	11168	-25	-8	6.6	8	5	-9
CCN1/C(=C/C(C)=C/c2sc3ccccc3[n+]2CC)Sc2ccccc21	1085&1305	28	63*	100*	nt	nt	99*
COc1ccc(C=NNC(=O)CC(=O)NCc2cccnc2)c(OC)c1	nt	nt	nt	5.8	8	9	8
CCOC(=O)c1[nH]c2ccc(Br)cc2c1NC(=O)CCN1CCOCC1	nt	6	2	5.0	14	5	-7
Cc1ccccc1S(=O)Cc1ccc(C(=O)NC2CCN(Cc3ccccc3)CC2)o1 (centres undefined)	6481	-11	-7	4.2	2	1	-2
COc1ccc(-c2cc(C(=O)N3CCN(S(=O)(=O)c4ccc(C)cc4)CC3)[nH]n2)cc1	4555	-22	-1	3.7	nt	nt	20
COC(=O)c1ccc(C=NN2C(C)CCCC2C)cc1 (centres undefined)	nt	nt	nt	2.2	12	0	7
CC(C)C(=O)Nc1cccc(NC(=O)c2cccc(Br)c2)c1	2216	-29	-3	nt	nt	nt	nt
Cc1cc(N2C(=O)C3CCCN3C2c2sccc2C)no1 (centres undefined)	8420	1	3	1.6	-13	0	-2
Nc1nnc(Cc2ccc(Cl)cc2)s1	4089	-2	5	1.6	nt	nt	2
Cc1cc(OCCCN2CCCC2)ccc1Cl	2989	2	-3	3.2	12	2	14
Cc1ccc(OCCOC(=O)c2sc(=S)n(C)c2C)cc1	2397	-20	4	4.5	4	9	4
COc1cc(NC(=O)Cc2ccccc2)ccc1NC(=O)c1ccco1	5167	-17	-3	6.2	24	13	7
Cc1snc(S(=O)(=O)/C(C#N)=N/Nc2cccc(C(F)(F)F)c2)c1C#N	2672	-5	-3	nt	nt	nt	nt
Cc1noc(C)c1NC(=O)Nc1ccc2c(c1)C(=O)N([C@H](C)CO)C[C@H](C)[C@@H](CN(C)S(=O)(=O)c1cccs1)O2	2892	-14	nt	9.1	5	4	11
CCOc1ccccc1NC(=O)COC(=O)c1cc(C(=O)OC)cc([N+](=O)[O-])c1	8271	-29	-4	-1.1	-3	-6	12
Nc1cc(N)nc(SCC(=O)Nc2cccc(S(=O)(=O)N3CCCCC3)c2)n1	3097	-7	nt	1.3	3	-1	3
Cc1nn(Cc2ccc(F)cc2)c(Cl)c1/C=N/NC(=O)c1cccnc1	2685	-26	-8	nt	nt	nt	nt
O=C(O)CSc1nnc(COc2ccc([N+](=O)[O-])cc2)n1-c1ccccc1	3225	6	2	14	-1	2	6
